# High-throughput results: PubChem, National Center for Advancing Translational Sciences (NCATS)
# Rango-impB inh: qHTS Assay for Inhibitors of Rango (Ran-regulated importin-beta cargo) - Importin beta complex formation; Importin subunit beta-1 (Homo sapiens), Q14974; 0.031% of 340,000 active; Rango CFP/YFP FRET sensor + importin beta, 45 min; Potency, µM (doses to about 92.2 µM), for the others: top-dose inhibition of complex formation; active = rising FRET ratio curve, often small or poorly fitted; inconclusive = mostly compound fluorescence or quenching in the first reads; inactive = flat curves in all reads;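 note: potency is the fitted concentration of half-maximal effect; 0% = DMSO wells and 100% = buffer wells lacking importin beta; nearly all actives have a fitted effect of over 15% in size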
# Target sequence (Q14974 whole entry, looked up): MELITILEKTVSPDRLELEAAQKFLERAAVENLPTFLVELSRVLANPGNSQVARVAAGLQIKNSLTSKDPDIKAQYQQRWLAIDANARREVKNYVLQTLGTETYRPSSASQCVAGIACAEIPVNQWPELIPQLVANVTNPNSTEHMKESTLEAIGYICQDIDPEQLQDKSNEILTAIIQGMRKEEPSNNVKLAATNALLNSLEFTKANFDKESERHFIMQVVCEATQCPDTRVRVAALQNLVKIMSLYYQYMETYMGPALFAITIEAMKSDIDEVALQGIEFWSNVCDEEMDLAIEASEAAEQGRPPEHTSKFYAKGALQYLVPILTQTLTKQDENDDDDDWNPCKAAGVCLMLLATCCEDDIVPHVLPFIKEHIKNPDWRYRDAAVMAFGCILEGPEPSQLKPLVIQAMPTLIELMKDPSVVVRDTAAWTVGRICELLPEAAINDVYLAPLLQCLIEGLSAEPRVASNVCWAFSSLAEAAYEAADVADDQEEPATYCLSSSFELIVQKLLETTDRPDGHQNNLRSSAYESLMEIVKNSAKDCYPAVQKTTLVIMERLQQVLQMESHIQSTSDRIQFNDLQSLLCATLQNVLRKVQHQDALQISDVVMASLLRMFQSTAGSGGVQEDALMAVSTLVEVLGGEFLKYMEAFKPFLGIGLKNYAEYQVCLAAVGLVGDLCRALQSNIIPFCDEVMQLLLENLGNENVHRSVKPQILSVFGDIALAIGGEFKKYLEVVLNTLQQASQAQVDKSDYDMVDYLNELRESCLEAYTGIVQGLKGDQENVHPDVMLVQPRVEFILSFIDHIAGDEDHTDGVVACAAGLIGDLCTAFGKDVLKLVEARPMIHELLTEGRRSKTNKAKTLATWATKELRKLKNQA
#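 Inhibition scored from the CFP 486 nm/YFP 530 nm FRET ratio 45 min after adding 0.125 microM importin beta to 50 nM Rango biosensor preincubated 5 min with compound (room temperature, PBS with DTT, Tween-20, BSA). No-importin wells as positive control.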
# Rango release inh: qHTS Assay for Inhibitors of RanGTP induced Rango (Ran-regulated importin-beta cargo) - Importin beta complex dissociation; Biochemical FRET Rango-importin beta, RanGTP-induced dissociation; Potency, µM (top dose mostly 46.1 µM), for the others: at the highest dose activity change, negative = inhibition; 0.071% of 340,000 active; active means falling FRET ratio curve, often poorly fitted, with flat reads before Ran was added; inconclusive means other falling curves, or compound fluorescence or quenching; inactive means flat or rising ratio curve;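 note: potency is the fitted concentration of half-maximal effect; % of control where 0% means no effect; nearly all actives have a fitted effect of over 45% in size; -100% = wells without RanGTP and RCC1; the record marks most hits as doubtful in a second field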
#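 Compounds preincubate 5 min with complex of recombinant Rango and importin beta in PBS with 1 mM DTT. Ran (0.6 uM) loaded with 2 mM GTP plus 0.2 uM RCC1 starts dissociation; FRET is recorded 45 min later.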
# miR-21 reporter: qHTS Assay for Modulators of miRNAs and/orActivators of miR-21 | HeLa miR-21 FLuc reporter, luciferase, 48 h | Potency, µM (highest dose often 38.3 µM), for inactives: at the top dose reporter change, positive = more light | 340,000 tested, under 10 active; active = well fitted rising curve with a large enough effect; inconclusive = small, poorly fitted or top-dose-only effect; inactive = no such curve, though single readings can be large or run the other way;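 note: % of control where 0% means no effect; miR-21 action dims this reporter so a rising signal means less miR-21 action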
#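 HeLa cells stably expressing CMV-driven firefly luciferase with a downstream miR-21 binding sequence, endogenously expressing miR-21, were treated with titrations (up to about 40uM final) for 48 hours at 37 degree Celsius. Luciferase luminescence was read after lysis.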
# GLA inh pH 4.5: qHTS Assay for Inhibitors of Human alpha-Galactosidase at pH 4.5 | Alpha-galactosidase A (Homo sapiens), P06280 | purified enzyme, 4-MU-alpha-Gal fluorescence, pH 4.5 | activity change, negative = inhibition, % at 105 µM | 230,000 tested, under 10 active | AID 1467, 2008; inconclusive = small, poorly fitted or top-dose-only inhibition, or a rising curve; inactive = flat fitted curve, though single readings scatter; no compound was filed as active;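 note: 0% = full activity with enzyme and -100% = basal without enzyme; dose as in the result columns while the protocol names 77 µM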
# * = called active by the depositor; ? = inconclusive; / = not tested or not shown; [ ] = another dose, or the depositor's remark.
# The line under a structure holds: Rango-impB inh	GLA inh pH 4.5	miR-21 reporter	Rango release inh
> CCN(C(=O)CSc1nnc(-c2ccc(F)cc2)c2ccccc12)C1CCS(=O)(=O)C1 (centres undefined)
→ 3.6%	-14	-9%	5%
> COc1ccccc1C1SCCN1S(C)(=O)=O (centres undefined)
→ -1.5%	3	-1%	-5%
> CCOc1ccc(N2C(=O)CC(Sc3nc4ccc(OCC)cc4s3)C2=O)cc1 (centres undefined)
→ 0.6%	/	/	-2%
> CCOC(=O)C1=C(COC(=O)c2ccccc2OC)NC(=O)NC1C (centres undefined)
→ 1.2%	/	/	10%
> O=C(Nc1ccccc1O)/C(=C\c1ccccc1)NC(=O)c1ccccc1
→ 0.1%	4	1%	0%
> COCCC(=O)Nc1ccc2c(c1)CN(C(=O)CCOC)CC2
→ 2.6%	3	0%	?
> Cc1cccc(C)c1NC(=O)CSc1nnc(NC(=O)C2CC2)s1
→ ?	/	0%	-9%
> CCOC(=O)c1ccc(NC(=O)CCNC(=O)c2ccc([N+](=O)[O-])cc2)cc1
→ ?	1	-14%	-9%
> CC(=O)Oc1ccc2nc(-c3ccc(Br)o3)oc(=O)c2c1
→ -0.7%	/	0%	7%
> C#CCOCCOCCOCCNc1nc(N2CCN(C(=O)C([C@@H](C)CC)n3cc(C(N)COC(=O)C(F)(F)F)nn3)CC2)nc(N2CCN(C(=O)[C@H](Cc3cc4ccccc4[nH]3)n3cc(C(N)CO)nn3)CC2)n1 (some centres undefined)
→ -2.3%	/	/	-13%
> CCOC(=O)c1sc(N)c(C(=O)OCC)c1C
→ 1.0%	-3	-60%	4%
> CCCCNc1cc(C)nc(NCc2ccccc2)n1
→ 1.7%	1	27%	19%
> COc1cc2ccc(=O)oc2c(CC=C(C)C)c1OC
→ 1.3%	-7	-4%	1%
> CC(C)OCCCNC(=O)CN1C(=O)c2cccc3cccc1c23
→ ?	/	-4%	?
> COc1ccc(C(=O)/C=C2\NCC3c4ccccc4CCN3C2=O)cc1 (centres undefined)
→ ?	-7	-3%	3%
> CC(C)CC(=O)Nc1ccc(C(=O)NNC(=S)NC(=O)C2CCCCC2)cc1
→ -1.9%	2	0%	4%
> Cc1ccc(CN2CCNC(=O)C2CC(=O)NC2CCCCCC2)o1 (centres undefined)
→ -4.5%	4	2%	-5%
> O=C(Nc1nc(-c2ccccc2)cs1)NC1CCCCC1
→ 4.6%	0	-17%	6%
> O=C(CCC1CCCN(C(=O)COc2ccccc2)C1)N1CCN(c2ccccn2)CC1 (centres undefined)
→ -3.6%	10	12%	-5%
> Cc1ccn2c(c1)nc(=S)n2C(=O)c1ccco1
→ /	-4	-48%	/
> Cc1ccc(S(=O)(=O)NC2(C(=O)O)CCCC2)cc1
→ 2.0%	/	/	-5%
> Cc1cc(C)n2nc(C(=O)OCC(=O)N3CCC3)nc2n1
→ -0.5%	8	0%	-6%
> CCOc1ccc2ccccc2c1C(=O)N1CCOCC1
→ 0.0%	3	-9%	0%
> CN(C)c1ccc(NC(=S)NCC2CCCO2)cc1 (centres undefined)
→ -0.4%	-1	-49%	0%
> COc1ccc(CCNC(=O)CSc2nncs2)cc1
→ -4.9%	-3	-1%	19%
> COc1cc(/C=N/NC(=O)c2sc3ccccc3c2Cl)ccc1OC(=O)c1ccc([N+](=O)[O-])cc1
→ ?	2	0%	1%
> COc1cc(CC(=O)N2CCc3ccccc32)cc(OC)c1OC
→ 1.4%	3	9%	9%
> COC(=O)c1c(Cc2ccccc2Cl)c[nH]c1C
→ 1.3%	-2	-7%	-8%
> C/C(CC(=O)NC1C2CC3CC(C2)CC1C3)=N\NC(=O)Cc1cccs1 (centres undefined)
→ -1.4%	2	-24%	-8%
> O=C(NNC(=O)C1CC(c2cccnc2)=NO1)Nc1cccc(F)c1 (centres undefined)
→ 0.0%	-3	-8%	3%
> Cc1cccc(-n2cnc3c(c2=O)c2nc4ccccc4nc2n3Cc2ccco2)c1
→ -0.1%	-5	2%	-16%
> COc1ccc(CNC(=O)CN(C(=O)c2csnn2)c2ccc(C(C)=O)cc2)cc1
→ 4.0%	/	-37%	1%
> O=C(N/N=C/c1ccc(F)cc1)c1ccccc1
→ -0.4%	2[21.1 µM]	-38%	-5%
> CC(=O)c1c(C)n([O-])c2cc(F)c(F)cc2[n+]1=O
→ ?	1	?	?
> O=C1CCCc2c1cc(-c1ccccc1)n2-c1ccccc1
→ -2.0%	2	2%	7%
> C[C@@]12CCC3[C@@](CCC4[C@@]3(C)CCC[C@@]4(C)C(=O)N3CCOCC3)(CC1=O)C2 (some centres undefined)
→ ?	/	/	-18%
> CCOc1ccccc1N(CC(=O)Nc1ccc(S(=O)(=O)N2CCCC2)cc1)S(C)(=O)=O
→ 1.0%	/	2%	9%
> COc1ccc(N2CCN(C(=O)C3CCCN(S(=O)(=O)c4ccc(C)cc4)C3)CC2)cc1 (centres undefined)
→ -1.0%	/	8%	-22%
> O=C(CCc1nnc(CCCCc2ccccc2)o1)NCCN1CCCCC1=O
→ 0.5%	5	-1%	-8%
> CCCCN=C1SC(C(=O)Nc2sc3c(c2C(=O)OC)CCC3)C(N)=C1C(=O)N1CCOCC1 (centres undefined)
→ ?	/	/	?
> NC(=O)C(c1ccc(Br)cc1)c1ccc(C(=O)c2ccccc2)cc1 (centres undefined)
→ 0.1%	/	8%	9%
> CCC1Sc2ccc(S(=O)(=O)CCC(=O)Nc3cc(C)ccn3)cc2NC1=O (centres undefined)
→ 7.1%	/	7%	26%
> O=C1CC2(CCCCCC2)Oc2ccc(Cl)cc21
→ -1.2%	/	/	5%
> CC1=Nn2c(nnc2-c2n[nH]c3c2CCC3)SC1
→ -3.2%	-6	-1%	15%
> COc1ccc(CCNC(=O)c2ccc(N3CCCCS3(=O)=O)cc2)cc1OC
→ 1.9%	/	-8%	-10%
> CC(C)N(C(C)C)S(=O)(=O)c1ccc(NN)nc1
→ -1.3%	8	-1%	-2%
> Cc1cccc(C)c1NC(=S)NC(C)CCc1ccccc1 (centres undefined)
→ 1.4%	6	20%	0%
> O=C1COc2ccc(C(=O)COC(=O)CCSc3ccc(Cl)cc3)cc2N1
→ 0.4%	7	-2%	12%
> CCOC(=O)C1CCN(c2c(NCCCN3CCN(Cc4ccccc4)CC3)c(=O)c2=O)CC1
→ -1.4%	5	0%	1%
> COc1cc(CC(NC(C)=O)C(=O)NC2CCN(c3nc(OC)nc(OC)n3)CC2)cc(OC)c1 (centres undefined)
→ -1.8%	6	0%	6%
> C=CCc1ccccc1OCC(O)CN1CCN(c2ccc(OC)cc2)CC1 (centres undefined)
→ 4.7%	-4	-6%	-12%
> O=C(NCc1ccc2c(c1)OCO2)C1CCC(CNS(=O)(=O)c2cccc3nsnc23)CC1 (centres undefined)
→ -1.8%	-5	0%	-9%
> CCCCCCSc1nc2c(c(=O)[nH]c(=O)n2C)n1C
→ 0.3%	0	-11%	-11%
> COc1ccc(S(=O)(=O)Nc2ccccc2C(F)(F)F)cc1
→ -1.4%	0	-3%	0%
> COc1cc(Nc2ccc(S(=O)(=O)N3CCN(C)CC3)cc2[N+](=O)[O-])cc(OC)c1
→ -0.3%	/	/	-6%
> CCOC(=O)c1ccc(NC(=O)c2nc[nH]c2C(=O)N[C@@H](CCCCNC(=O)OC(C)(C)C)C(=O)OC(C)(C)C)cc1
→ -0.6%	-27	9%	3%
> O=[N+]([O-])c1cccc(COc2ccccc2CN2CCCCC2)c1
→ -2.7%	/	/	7%
> CN(C)CCCN(C(=O)c1ccc2c(c1)CCCC2)c1nc2ccc(Cl)cc2s1
→ ?	-9	1%	44%
> COc1cc(NC(=O)CCCn2c(=O)oc3ccccc32)cc(OC)c1
→ -1.6%	/	/	1%
> COc1cccc(-c2cc(C(F)(F)F)n3nc(C(=O)Nc4c(C)n(C)n(-c5ccccc5)c4=O)cc3n2)c1
→ 8.7%	-7	-9%	3%

# In a second layout: results already given
SMILES	Rango-impB inh	GLA inh pH 4.5	miR-21 reporter	Rango release inh
COc1cccc(-c2cc(C(F)(F)F)n3nc(C(=O)Nc4c(C)n(C)n(-c5ccccc5)c4=O)cc3n2)c1	8.7%	-7	-9%	3%
COc1cc(CC(NC(C)=O)C(=O)NC2CCN(c3nc(OC)nc(OC)n3)CC2)cc(OC)c1 (centres undefined)	-1.8%	6	0%	6%
O=C(N/N=C/c1ccc(F)cc1)c1ccccc1	-0.4%	2[21.1 µM]	-38%	-5%
CCC1Sc2ccc(S(=O)(=O)CCC(=O)Nc3cc(C)ccn3)cc2NC1=O (centres undefined)	7.1%	/	7%	26%
O=C1COc2ccc(C(=O)COC(=O)CCSc3ccc(Cl)cc3)cc2N1	0.4%	7	-2%	12%

# Going on with the list.
# The line under a structure holds: Rango-impB inh	GLA inh pH 4.5	miR-21 reporter	Rango release inh
> Cc1nn(Cc2ccccc2)c(C)c1CNC(=O)[C@H](C)N=C1NS(=O)(=O)c2ccccc21
→ ?	/	/	0%
> CCOC(=O)C1=C(C)N(C)C(=S)NC1c1c(OCC)ccc2ccccc12 (centres undefined)
→ 3.7%	3	7%	0%
> COc1ccccc1CNC(=O)Cn1nc(C(F)(F)F)cc1C
→ 2.3%	/	/	4%
> Cc1sc2ncnc(SC(C)C#N)c2c1C (centres undefined)
→ 0.7%	-11	-30%	-1%
> Cc1ccccc1N1CC(C(=O)Nc2nnc(SCc3ccccn3)s2)CC1=O (centres undefined)
→ ?	/	-1%	3%
> N#CCCN(C(=O)Nc1ccc(Cl)cc1)c1ccccc1
→ 2.1%	1	-15%	-12%
> COc1ccc(NC(=O)c2cc3n(n2)C(C(F)(F)F)CC(c2ccco2)N3)cc1 (centres undefined)
→ 5.1%	5	-11%	17%
> CC(=O)Nc1ccc(S(=O)(=O)Nc2ccc(Cc3ccncc3)cc2)cc1
→ -3.3%	/	15%	-1%
> Cc1ccc(C(=O)Nc2cccc(C(F)(F)F)c2)cc1Nc1cnccn1
→ 0.9%	-7	11%	1%
> O=C(c1ccco1)N1CCN(C(c2ccc(F)cc2)c2nnnn2Cc2cccs2)CC1 (centres undefined)
→ 2.1%	-1	0%	0%
> CCC(CC)COC(=O)C1=C(C)NC(=O)NC1c1ccc(N(C)C)cc1 (centres undefined)
→ ?	/	12%	-2%
> Cc1ccc(C(=O)N2CCC(N3CCC(C(=O)N4CCOCC4)CC3)CC2)cc1C
→ -2.4%	/	3%	3%
> Fc1ccc(CSc2ccc(-c3ccco3)nn2)cc1
→ 1.6%	9	-60%	9%
> CC(=O)c1cccc(OCC(O)CNCC2COc3ccccc3O2)c1 (centres undefined)
→ 4.0%	/	-12%	-13%
> COC(=NC(C)C)NC(C)C
→ -3.4%	-6	-6%	18%
> COc1cc2c(cc1NC(=O)CSc1ccc(C)cc1)oc1ccccc12
→ ?	1	-2%	4%
> Cc1ccc(N(NC(=O)C(O)(c2ccccc2)c2ccccc2)C(=O)CCl)cc1
→ ?	-6	?	21%
> COc1ccccc1NC(=O)c1ccc(S(=O)(=O)N(C)C)cc1
→ -0.4%	4	-7%	-2%
> COc1ccccc1OCCCN1C(=O)C(=O)c2cccc(C)c21
→ 0.1%	-7	5%	-6%
> COc1ccc(CCNC(=O)C(=O)NCC2OCCN2S(=O)(=O)c2ccc(Cl)cc2)cc1 (centres undefined)
→ 4.7%	/	18%	18%

# 4 entries drawn at random from the list so far:
# The line under a structure holds: Rango-impB inh	GLA inh pH 4.5	miR-21 reporter	Rango release inh
> O=C(c1ccco1)N1CCN(C(c2ccc(F)cc2)c2nnnn2Cc2cccs2)CC1 (centres undefined)
→ 2.1%	-1	0%	0%
> CC(=O)c1cccc(OCC(O)CNCC2COc3ccccc3O2)c1 (centres undefined)
→ 4.0%	/	-12%	-13%
> CCC(CC)COC(=O)C1=C(C)NC(=O)NC1c1ccc(N(C)C)cc1 (centres undefined)
→ ?	/	12%	-2%
> Cc1ccccc1N1CC(C(=O)Nc2nnc(SCc3ccccn3)s2)CC1=O (centres undefined)
→ ?	/	-1%	3%

# An excerpt, so the mix of outcomes need not match the whole.
